Rango dissoc inh: qHTS Assay for Inhibitors of RanGTP induced Rango (Ran-regulated importin-beta cargo) - Importin beta complex dissociation; Potency, µM (series often up to 46.1 µM), without a hit: at the top dose activity change, negative = inhibition; 340,000 tested, 0.071% active; Biochemical FRET Rango-importin beta, RanGTP-induced dissociation; Snurportin-1 (Homo sapiens) + GTP-binding nuclear protein Ran (Homo sapiens) + Importin …; active means falling FRET ratio curve, often poorly fitted, with flat reads before Ran was added; inconclusive means other falling curves, or compound fluorescence or quenching; inactive means flat or rising ratio curve;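 also: potency is read from the fitted curve at half-maximal effect; % of control where 0% means no effect; nearly all actives have a fitted effect of over 45% in size; -100% = wells without RanGTP and RCC1; the record marks most hits as doubtful in a second field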
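Rango (0.1 uM)–importin beta (0.25 uM) complex; RanGTP-RCC1 trigger; 45 min RT; CFP/YFP FRET read.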
miR-21 reporter: qHTS Assay for Modulators of miRNAs and/orActivators of miR-21. HeLa miR-21 FLuc reporter, luciferase, 48 h. 340,000 tested, under 10 active. Potency, µM (top dose mostly 38.3 µM), for the others: at the top dose reporter change, positive = more light; active = well fitted rising curve with a large enough effect; inconclusive = small, poorly fitted or top-dose-only effect; inactive = no such curve, though single readings can be large or run the other way;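 also: % of control where 0% means no effect; miR-21 action dims this reporter so a rising signal means less miR-21 action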
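HeLa cells stably expressing CMV-driven firefly luciferase with a downstream miR-21 binding sequence, endogenously expressing miR-21, were treated with titrations (up to about 40uM final) for 48 hours at 37 degree Celsius. Luciferase luminescence was read after lysis.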
GLA inh pH 4.5: qHTS Assay for Inhibitors of Human alpha-Galactosidase at pH 4.5; Alpha-galactosidase A (Homo sapiens), P06280; activity change, negative = inhibition, % at 105 µM; 230,000 tested, under 10 active; AID 1467, 2008; purified enzyme, 4-MU-alpha-Gal fluorescence, pH 4.5; inconclusive = small, poorly fitted or top-dose-only inhibition, or a rising curve; inactive = flat fitted curve, though single readings scatter; no compound was filed as active;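 also: 0% = full activity with enzyme and -100% = basal without enzyme; dose as in the result columns while the protocol names 77 µM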
Target sequence (P06280 whole entry, looked up): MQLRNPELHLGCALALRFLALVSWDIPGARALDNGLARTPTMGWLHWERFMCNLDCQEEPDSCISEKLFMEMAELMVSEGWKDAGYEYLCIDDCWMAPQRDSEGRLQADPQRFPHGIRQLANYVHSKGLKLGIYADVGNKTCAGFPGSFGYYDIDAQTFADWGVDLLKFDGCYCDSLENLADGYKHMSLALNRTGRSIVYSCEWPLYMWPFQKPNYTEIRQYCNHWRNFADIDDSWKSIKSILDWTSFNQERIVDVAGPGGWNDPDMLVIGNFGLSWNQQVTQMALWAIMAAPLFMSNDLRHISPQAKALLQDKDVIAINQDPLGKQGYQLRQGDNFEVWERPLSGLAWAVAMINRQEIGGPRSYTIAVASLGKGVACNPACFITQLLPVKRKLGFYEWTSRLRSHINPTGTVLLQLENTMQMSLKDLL
Rango complex inh: qHTS Assay for Inhibitors of Rango (Ran-regulated importin-beta cargo) - Importin beta complex formation; Importin subunit beta-1 (Homo sapiens), Q14974; Rango CFP/YFP FRET sensor + importin beta, 45 min; Potency, µM (series often up to 92.2 µM), without a hit: at the top dose inhibition of complex formation; 340,000 tested, 0.031% active; active = rising FRET ratio curve, often small or poorly fitted; inconclusive = mostly compound fluorescence or quenching in the first reads; inactive = flat curves in all reads;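 also: potency is read from the fitted curve at half-maximal effect; 0% = DMSO wells and 100% = buffer wells lacking importin beta; nearly all actives have a fitted effect of over 15% in size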
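Inhibition scored from the CFP 486 nm/YFP 530 nm FRET ratio 45 min after adding 0.125 microM importin beta to 50 nM Rango biosensor preincubated 5 min with compound (room temperature, PBS with DTT, Tween-20, BSA). No-importin wells as positive control.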
Numbers without * were called inactive; u = inconclusive; x = not tested or not shown; & = joins results of further samples; [ ] = remark or other dose. This is a subset (hit frequency here may not be typical).

no.	compound	Rango dissoc inh	miR-21 reporter	GLA inh pH 4.5	Rango complex inh
1	CCCCN(C)CCNC(=O)Cn1ncc2c(=O)oc3ccc(C)cc3c21	6%	-6%	0	1.4%
2	Cc1ccccc1NC(=O)C(=O)NCCCN1CCCC1=O	-13%	x	x	0.1%
3	O=C(Nc1cccc(F)c1)C1CC(=O)N(c2ccc(Br)cc2)C1 (stereo not drawn)	-10%	1%	-7	-3.9%
4	Cn1cc(CN2CCCC(C(=O)c3ccc(-c4ccccc4)cc3)C2)cn1 (stereo not drawn)	0%	-4%	-11	-2.4%
5	O=C(CNC(=O)C1CCCCC1)OCC(=O)c1ccc(Cl)s1	-3%	-3%	1	-0.2%
6	CCC(=O)n1nc(-c2ccco2)nc1N	20%	-6%	-1	1.0%
7	COC(=O)c1cc2ccsc2n1CC(=O)Nc1cc(Cl)ccc1OC	0%	23%	-14	0.7%
8	C1CCN2CC3CC(CN4CCCC[C@@H]34)[C@H]2C1	1%	x	x	-1.0%
9	Clc1cccc(-c2nnc(-c3ccno3)o2)c1	10%	-21%	-2	3.6%
10	COc1cc(OC)c2c(-c3ccccc3)cc(=O)oc2c1C(CCN1CCOCC1)c1ccc(N(C)C)cc1 (stereo not drawn)	-2%	x	-6	-0.3%
11	Cc1ccc(OCC(=O)Nc2cc(NC(=O)COc3ccc(C)cc3)cc(C(=O)O)c2)cc1	8%	-3%	x	4.8%
12	O=S(=O)(NCCSCc1ccc(Cl)cc1Cl)c1ccc2c(c1)OCCO2	19%	-4%	-13	-0.2%
13	Cc1ccc2[nH]c(=O)c(CN(Cc3cccs3)S(=O)(=O)c3ccc4c(c3)OCCO4)cc2c1	9%	-1%	-2	4.1%
14	CC1CC(C)CN(S(=O)(=O)c2ccc3c(c2)CC(C)N3C(=O)C2CC2)C1 (stereo not drawn)	34%	2%	x	1.2%
15	CCCCC[C@@H]1C=C(C(=O)O)[C@H](c2ccc(C#N)cc2)N1S(=O)(=O)c1ccc(C)cc1	-3%	x	x	-1.2%

An excerpt from above with just Rango dissoc inh:
nr	structure	Rango dissoc inh
6	CCC(=O)n1nc(-c2ccco2)nc1N	20%
7	COC(=O)c1cc2ccsc2n1CC(=O)Nc1cc(Cl)ccc1OC	0%

Further results
no.	compound	Rango dissoc inh	miR-21 reporter	GLA inh pH 4.5	Rango complex inh
16	CCCOc1ccc(C(=O)NNC(=S)NC(=O)c2ccccc2[N+](=O)[O-])cc1	0%	15%	x	3.0%
17	CCC(Oc1ccccc1)C(=O)Nc1nnc(S(=O)(=O)Nc2ccccc2)s1 (stereo not drawn)	19%	-2%&-2%	x	4.7%
18	Cc1ccc(NC(=O)N2CCCC2C(=O)Nc2ccc(-n3cnnn3)c(C)c2)cc1 (stereo not drawn)	1%	-4%	7	-3.6%
19	Cn1c2ccccc2c2c(C(=O)N3CCN(c4ccccc4)CC3)cn(C3CCCC3)c(=O)c21	4%	0%	2	0.9%
20	Cc1ccc(C(=O)CSc2nc(-c3ccccc3)cc(=O)[nH]2)cc1	13%	1%	-2	6.3%
21	COC(=O)c1ccc(Sc2ccccc2NS(=O)(=O)c2ccc(C)cc2)nc1	9%	0%	-11	12%
22	CCCCNC(=O)CNC(=O)c1cccs1	5%	-16%	1	-5.6%
23	Cc1ccc(NC(=S)N(CCCN2CCOCC2)Cc2ccco2)cc1Cl	3%	-4%	-5	-5.5%
24	CC1=CC(C)(C)n2c(O)c(N=NC(N)=S)c3c(C)c(C)cc1c32	26%	-7%	8	0.2%
25	COc1ccc2nc(N3C(=O)CNC3=S)sc2c1	3%	-34%	3	-0.9%
26	Cc1onc(-c2c(F)cccc2Cl)c1-c1nnc(-c2ccc(C(F)(F)F)cc2)o1	-2%	9%	-3	1.0%
27	O=C(CSc1nc(=O)n(CCCN2CCOCC2)c2c1CCCC2)Nc1cccc([N+](=O)[O-])c1	1%	x	x	1.0%
28	CC(=O)Nc1ccc(SC[C@H](Cc2ccccc2)N2CC[C@@H](C(C)(C)C)CCC2=O)cc1	8%	x	x	0.1%
29	CCC(=O)c1ccc(OCC(=O)OCC(=O)NCCCc2ccccc2)cc1	u	x	x	3.3%
30	CN1C(=O)c2ccccc2Sc2ccc(C(=O)O)cc21	1%	0%	x	1.6%
31	Cn1c(CCN2CCCC2)nc2cc(NS(=O)(=O)c3ccccc3)ccc21	-3%	12%	x	2.3%
32	O=C(c1n[nH]c(=O)c2ccccc12)N1CCN(c2ccccc2)CC1	-1%	1%	7	-0.1%
33	Cc1ccc(N(C(=O)C(F)(F)F)C(C(=O)NC2CCCCC2)c2cccs2)cc1 (stereo not drawn)	-8%	-6%	4	-1.4%
34	CC(C)n1cc(NC(=O)c2cc(-c3ccccc3)on2)cn1	5%	-9%	-8	1.4%
35	CCCCCN1CC(O)=C(c2ccccc2)C1=N	3%	4%	2	-5.4%
36	O=C(O)/C=C/C(=O)N1CCc2ccccc21	0%	4%	5	0.3%
37	CCOc1ccccc1CNC(=O)C1CCN(c2nc3ccccc3o2)CC1	13%	-3%	6	-0.6%
38	CCOC(=O)CCNC(=O)N1CCCC(C(=O)c2cccc(Cl)c2)C1 (stereo not drawn)	35%	-3%	7	2.1%
39	Cc1ccc(S(=O)(=O)NCCSC(C)(C)C)cc1	-7%	-9%	7	1.2%
40	CC(=O)c1ccc(N2CCN(CC(=O)N(C3CC3)C3CCS(=O)(=O)C3)CC2)c(F)c1 (stereo not drawn)	1%	x	x	-2.1%
41	CCO/C=C/C(O)(CNC(=O)COc1ccccc1F)C(F)(F)F (stereo not drawn)	2%	-5%	3	4.6%
42	COc1ccc(C2/C(=C(/O)c3ccccc3)C(=O)C(=O)N2CCCN2CCOCC2)cc1 (stereo not drawn)	2%	-12%	x	3.5%
43	O=C(Nc1ccc2[nH]ncc2c1)c1cccc(F)c1	-7%	-33%	x	-1.0%
44	CC1CN(C(=O)COC(=O)Cc2c(F)cccc2Cl)CC(C)O1 (stereo not drawn)	-6%	x	x	0.3%
45	O=C(CSCc1ccco1)c1cccs1	-12%	-53%	4	-0.5%
46	COc1cccc(Nc2ncc(C(=O)O)c3ccccc23)c1	4%	1%	-3	-1.0%
47	CCOC(=O)C(Cc1ccccc1)NC(C)=O (stereo not drawn)	-13%	0%	-15	5.2%
48	CN1CCN(CCCC(=O)c2ccc(F)cc2)CC1	-10%	-5%	-18	-0.2%
49	O=[N+]([O-])c1ccccc1S(=O)(=O)Nc1nc2ccccc2s1	-1%	-11%	x	1.1%
50	O=C(O)c1ccc(N/N=C/c2ccc(OC(=O)c3ccccc3Cl)cc2)cc1	4%	27%	-8	u
51	Cc1nc(NN)c2c3c(sc2n1)COC(C)(C)C3	-7%	-4%	x	-0.8%
52	O=C(CNC(=O)OCc1ccccc1)NCC(=O)Oc1ccc([N+](=O)[O-])cc1	8%	x	x	-5.0%
53	COCC(C)NC(=O)C1c2ccccc2Oc2ccccc21 (stereo not drawn)	-6%	3%	x	2.1%
54	O=C(c1ccc(SCc2cccc(Br)c2)c([N+](=O)[O-])c1)N1CCN(c2ccccn2)CC1	-12%	-1%	u	-4.0%
55	Cc1cccc(N(C)C(=O)c2cc(S(=O)(=O)N3CCCCC3)c[nH]2)c1	10%	5%&4%	x	-0.5%
56	Cc1ccc(NC(=O)CSCC(=O)Nc2ccc(S(=O)(=O)N3CCCC3)cc2)cc1	16%	x	x	-5.1%
57	CCOCCn1c(CN(Cc2ccccc2)Cc2ccccc2)nc2c1c(=O)[nH]c(=O)n2C	-10%	-5%	-8	0.4%
58	COc1ccccc1NC(=O)CCS(=O)(=O)c1cc2c(cc1Cl)NC(=O)CO2	-13%	-1%	x	-1.3%
59	CCCCOc1nc(N2CCOCC2)nc(C)c1[N+](=O)[O-]	-10%	-6%	-3	-1.1%
60	O=C1C2C3C=CC(C3)C2C(=O)N1c1ccc2c(c1)OCO2 (stereo not drawn)	11%	-3%	-7	0.1%
61	CC1=C(C(N)=O)C(c2ccc(Cl)c(Cl)c2)n2ncnc2N1 (stereo not drawn)	-12%	-1%	x	1.9%
62	CCN1C(=O)N[C@@H](c2ccccc2)[C@@H](C(=O)OC)[C@H]1C	-3%	x	5	3.7%
63	C[C@@H](C(=O)Nc1ccc2ccccc2c1)[C@H]1C[C@]1(C)[C@H](NS(=O)(=O)c1ccc(-c2ccccc2)cc1)c1ccccc1	3%	-2%	1&0	-0.1%
64	O=C1CC[C@@H](C(=O)O)N1	-12%	x	x	0.4%
65	O=C(CCc1ccccc1)NCc1ccccc1	0%	-12%	-5	-2.7%
66	O=C(NCc1ccccc1)N[C@@H](Cc1c[nH]c2ccccc12)C(=O)O	-1%	-10%	-11	1.4%
67	C/C(=N\NC(=O)c1nn(C)cc1Br)c1ccc(NC(=O)c2ccncc2)cc1	1%	-62%	-1	0.0%
68	COc1ccccc1NC(=O)c1ccc(NC(=O)COC(=O)C2(C)CC2(Cl)Cl)cc1 (stereo not drawn)	9%	16%	-2	-1.8%
69	O=C(/C=C/c1ccc2c(c1)OCO2)Nc1nc2ccccc2s1	0%	-26%	4	3.5%
70	CCOC(=O)[C@H]1[C@H]2COc3ccc(OC)cc3[C@@H]2N2C(=O)CN(Cc3ccccc3)C(=O)[C@@]12C	0%	x	x	-0.2%
71	C/C(=N\NC(=O)C1(C)CC1(Br)Br)c1ccc(NC(=O)C2CCC2)cc1 (stereo not drawn)	-4%	-5%	6	-2.7%
72	CCCC(CCC(=O)Nc1ccc(C(=O)OC)cc1)C(=O)O (stereo not drawn)	0%	-6%	5	1.9%
73	Cc1ccccc1/C=N/NC(=O)c1cccnc1	1%	-6%	x	-8.0%
74	Cc1cccc(NC(=S)N(Cc2ccc(Br)cc2)Cc2ccc(C(=O)O)cc2)c1	-14%	4%	-2[21.1 µM]	-0.6%
75	O=C(NN=C1CCCCCC1)c1cn(-c2ccccc2)nc1-c1ccccc1	20%	5%	9	3.1%

Other records follow.
no.	compound	Rango dissoc inh	miR-21 reporter	GLA inh pH 4.5	Rango complex inh
76	COc1ccc(C[C@H]2CN3C(=NC[C@H]3Cc3ccccc3)N2CCNC(=O)CCC2CCCCC2)cc1	-2%	9%	3	-0.9%
77	CCNc1nc(NC(C)C)nc(Oc2ccc(/C=N/O)cc2)n1	-7%	-3%	1	-0.2%
78	CCCCCCSc1cccc(-c2nc3ccc(Cl)cn3c2NCCCC)c1	u	x	x	-1.1%
79	O=C(Nc1ccccc1O)c1cccc(NC(=O)c2ccco2)c1	u	-7%	x	u
80	O=C(CSc1nc2c(cnn2-c2ccc(F)cc2)c(=O)[nH]1)N1N=C(c2cccs2)CC1c1ccc(F)cc1 (stereo not drawn)	x	-2%	-9	x
81	N#Cc1ccc(-c2nc3ccccc3c(=O)n2O)cc1	8%	-1%	x	0.7%
82	O=C(OCC(=O)N1CCOCC1)c1ccc(N2CCOCC2)c([N+](=O)[O-])c1	-6%	-4%	5[21.1 µM]	3.4%
83	Clc1ccc(OCc2cn3ccccc3n2)c2ncccc12	-19%	-66%	-1	-1.5%
84	Cc1nc2ccccc2n1CC(O)Cn1c(C(F)(F)F)nc2ccccc21 (stereo not drawn)	-1%	-1%	-2	-3.5%
85	CCn1c(SCC(=O)Nc2cc(C(C)(C)C)nn2-c2ccccc2)nnc1-c1cccs1	12%	2%	-4	3.3%
86	C=CCSc1nnc(C)c(/C=C/Nc2ccc(Cl)cc2)n1	u	-11%	-5	u

High-throughput results from PubChem.
